Rce1 inhib: yeast Rce1p protease inhibitors, primary screen, biochemical, fluorescence, cell-free homogeneous. CAAX prenyl protease 2 (Saccharomyces cerevisiae (strain ATCC 204508 / S288c)), Q03530. yeast membranes, quenched prenylated peptide cleavage fluorescence. calls only. 290,000 compounds, 0.27% hits. AID 2563, 2010;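 active means fall in fluorescence gain of 50% or more versus controls, with final raw signal at or below 3038400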;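 further: plate controls were neutral control wells for no effect and wells lacking membranes for full effect; tested at 10 µM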
Env fusion inh: inhibitors of HIV-1 Env-driven cell-cell fusion, primary screen, HeLa-JRFL effector, CEM21 target cells, luciferase. inhibition, % at 12.3 µM. 360,000 compounds, 1.1% hits;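 active means mean replicate inhibition score of at least 50 and every replicate individually at or above 50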;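 further: 0% = plate neutral controls and 100% = maraviroc near 300 nM; one replicate is shown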
eIF4H FP inh: human eIF4H binding inhibitors, primary screen, translation initiation inhibitor project, biochemical, uHTS, fluorescence polarization. Eukaryotic translation initiation factor 4H (Homo sapiens), Q15056. eIF4H fluorescence polarization binding assay. inhibition, % at 35 µM. 290,000 compounds, 0.94% hits;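 active means 50% or more with normal probe brightness, or confirmed in later tests; about a fifth of its hits are not listed in these tables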;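 further: calls also rest on retests at 20 µM and on dose response follow-up; 0% = protein and probe with vehicle and 100% = probe without protein; strong numbers were not always called active; many hits fall short of the cut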
PABP polyA inh: PABP poly(A) RNA binding inhibitors, primary screen, biochemical, fluorescence polarization, uHTS. inhibition, % at 35 µM. 290,000 compounds, 1% hits;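 active means 50% or more with normal probe brightness, or confirmed in later tests; about a fifth of its hits are not listed in these tables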;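 further: calls also rest on retests at 20 µM and on dose response follow-up; controls were probe without protein and protein plus probe with vehicle; some compounds called inactive have numbers as strong as hits; many hits fall short of the cut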
Target sequence (P11940 whole entry, looked up): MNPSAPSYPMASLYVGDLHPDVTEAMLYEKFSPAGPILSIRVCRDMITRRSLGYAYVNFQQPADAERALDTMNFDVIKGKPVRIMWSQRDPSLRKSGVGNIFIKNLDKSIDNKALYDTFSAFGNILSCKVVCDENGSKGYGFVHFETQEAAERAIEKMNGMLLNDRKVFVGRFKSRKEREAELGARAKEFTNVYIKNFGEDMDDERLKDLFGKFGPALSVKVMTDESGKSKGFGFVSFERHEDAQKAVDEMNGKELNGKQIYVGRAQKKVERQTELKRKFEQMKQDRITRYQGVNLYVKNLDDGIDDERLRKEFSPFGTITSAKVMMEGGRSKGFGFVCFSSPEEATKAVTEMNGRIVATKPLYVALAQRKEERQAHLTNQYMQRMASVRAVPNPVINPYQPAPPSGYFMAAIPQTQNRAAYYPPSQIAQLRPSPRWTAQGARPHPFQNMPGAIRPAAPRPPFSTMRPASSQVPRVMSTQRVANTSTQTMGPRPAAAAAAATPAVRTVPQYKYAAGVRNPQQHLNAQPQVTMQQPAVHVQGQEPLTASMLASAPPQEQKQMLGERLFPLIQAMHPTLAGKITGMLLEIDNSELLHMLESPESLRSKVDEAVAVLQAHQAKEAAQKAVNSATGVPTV
CSC inhib: cancer stem cell viability inhibitors, primary screen, luminescence. inhibition, % at 7.5 µM. cancer stem cell-like cells viability. 300,000 compounds, 1.1% hits;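 active means mean at 75% or more and at least half the replicates too; tested in HMLE shEcad cells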;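 further: 0% = median of negative and 100% = median of positive control wells; the first replicate is given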
MT1-MMP act inh: blockers of MT1-MMP proenzyme processing, primary screen, HT1080 RFP-PRO-GFP cells, GFP/RFP fluorescence | Matrix metalloproteinase-14 (Homo sapiens), P50281 | GFP/RFP ratio fluorescence, overnight; percent of plate control window, DMSO zero | 360,000 compounds, 0.061% hits | GFP/RFP ratio change, % at 20 µM;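 active means GFP/RFP ratio change of at least 30% with cell ATP level not reduced by more than half and red fluorescence within 50% of control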; further: strong numbers were not always called active
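Assay system: HT1080 cells carrying an RFP-PRO-GFP reporter | Dosing: Single dose of 20 µM compound, 1% DMSO final | Incubation: Cells overnight before dosing, compound overnight, 37 °C, 5% CO2 | Evaluation: GFP/RFP fluorescence ratio | Control set: DMSO and RFP-L50D-GFP cell wells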
UUG fidelity: modulators of yeast start codon fidelity, primary screen, whole organism, S. cerevisiae, single point, plate reader; S. cerevisiae UUG-firefly luciferase reporter, luminescence/redox ratio; activity score, % at 18.7 µM; 350,000 compounds, 0.13% hits;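 active means replicate mean at a twofold rise or more, about +100% in these data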;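 further: firefly luciferase made from a UUG start codon reports start codon fidelity; reporter light over untreated wells divided by growth signal over untreated wells; some hits fall short of that in this replicate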
eIF4H FP inh retest: recorded beside eIF4H FP inh, whose call it bears; inhibition, %; compound at 20 µM; confirmation average;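 mean of two retest wells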
PABP polyA inh retest: second read-out of PABP polyA inh, no call of its own (marks repeat the call); inhibition, %; compound at 20 µM; confirmation repeats;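 mean of two retest wells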
MT1-MMP act inh RFP: further read-out of MT1-MMP act inh, marked with its call; RFP signal change, %; measured here: RFP expression control read;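 0 = vehicle wells; hits needed this value within 50% of zero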
Numbers without * were called inactive; i = inactive; x = no result given. An excerpt (hit frequency here may not be typical).

SMILES	Rce1 inhib	Env fusion inh	eIF4H FP inh	PABP polyA inh	CSC inhib	MT1-MMP act inh	MT1-MMP act inh RFP	UUG fidelity	others
Cc1cccc(NC(=O)CC2SC(=O)N(c3ccccc3)C2=O)c1 (stereo not given)	i	x	-15	7	x	4	1	x
CCOc1ccc2ccccc2c1/C=N\NC(=O)OC	i	x	5	-8	4	1	4	-4
CC(NC(=O)Cn1cc(C(=O)C2CC2)c2ccccc21)c1ccccc1 (stereo not given)	i	x	-2	-1	1	3	-3	-22
O=C(O)[C@H](CSCc1ccccc1)NS(=O)(=O)c1ccc(F)cc1	i	-3	-2	19	7	1	7	x
CCOc1ccc(S(=O)(=O)N/N=C(\C)c2ccc3c(c2)OCO3)cc1	i	-2	-1	2	-4	-1	-4	-12
COc1ccc(NS(=O)(=O)c2cccc3cccnc23)cc1Cl	i	-1	-5	2	-10	0	1	-13
CC(=O)Nc1cccc(N=NN2CCCCC2)c1	i	-9	-3	6	11	0	-1	-26
Clc1cccc(-c2nc3nc4ccccc4nc3n2Cc2ccccc2)c1	i	x	1	5	17	0	-2	x
O=C(c1ccccc1[N+](=O)[O-])N(CCc1ccccc1)Cc1ccccc1	i	18	-8	-6	1	x	x	2
C=CCOc1c(Br)cc(CNc2ccc(NC(=O)CCC)cc2)cc1OCC	i	x	-2	2	-9	4	4	-5
CC(C)(C)c1ccc(S(=O)(=O)N2CCC(O)(c3ccc(Cl)cc3)CC2)cc1	i	34	1	3	22	-1	-17	x
O=C1CCCN1c1ccc(N2CCCC2=O)cc1	i	-2	-2	5	x	5	2	-2
CC1(Oc2ccc(F)cc2)CCN(Cc2ccccc2OC(F)F)C1 (stereo not given)	x	-1	x	x	x	1	7	-11
Cc1cccn2c(=O)c3cc(C(=O)NCC4CCCO4)c(=N)n(C4CCCC4)c3nc12 (stereo not given)	i	-22	-4	8	-11	1	1	1
Cn1c(C(C(=O)NCC2CCCO2)N(CCc2ccccc2)C(=O)Cn2nnc3ccccc32)nc2ccccc21 (stereo not given)	i	-30	7	2	-14	-1	0	10
CCOC(=O)N1CCN(C(=O)c2ccc(N(Cc3ccccc3)S(C)(=O)=O)cc2)CC1	i	-10	2	14	7	-6	-4	-1
CCN(c1ccc(C)c(C)c1)S(=O)(=O)c1c(C)[nH]c(=O)[nH]c1=O	i	x	-2	-4	6	1	3	-11
Cn1c(SCC(=O)N2c3ccccc3Sc3ccccc32)nnc1-c1ccco1	i	x	0	24	-5	5	1	5
CCC(C)(C(=O)NC1CCCCC1)N(Cc1ccco1)C(=O)Cc1cccs1 (stereo not given)	i	0	0	-6	-8	-4	2	-20
CC(C)NC(=O)NC(=O)CSc1ncc(C(F)(F)F)cc1Cl	i	-40	3	-12	-13	8	5	x
CNc1c(N)n(Cc2ccccc2)c(=O)[nH]c1=O	i	-88	42	74	-9	-14	4	-16	eIF4H FP inh retest=-3;PABP polyA inh retest=14
O=C(CSc1nnnn1-c1ccccc1)NCCCN1CCCC1=O	x	-4	x	x	7	2	7	-22
CCN(C(=O)CSc1nnnn1-c1ccccc1OC)C1CCS(=O)(=O)C1 (stereo not given)	i	x	x	x	-6	3	3	-5
Cc1ccc(C2N(c3ccc(Cl)cc3)C(=O)N3CCCN23)cc1 (stereo not given)	i	1	-10	1	-23	-3	-4	15
CS(=O)(=O)N(CC(=O)N1CCCCCC1)Cc1ccc(Cl)cc1	i	-5	10	8	1	5	4	-15
CCOC(=O)C(NC(=O)C1CCCN1C(=O)OCc1ccccc1)C(=O)OCC (stereo not given)	i	x	-6	0	-4	1	-2	22
CCCc1ccc(C(=O)NNc2ccc(F)cc2)cc1	i	3	-4	5	94*	2	4	-20
COc1ccc([C@@H]2[C@@H]3C(=O)N(C(C)(C)C)C(=O)[C@@H]3[C@]3(Cc4ccccc4)C(=O)N(c4ccc(Br)cc4)C(=O)N23)cc1	i	x	4	4	13	-10	-2	-9
Cc1ccc2c(c1)sc1nc(=O)n(-c3cccc(Cl)c3)c(=O)n12	i	-137	-10	-2	34	4	0	-10
COC(=O)CCC(=O)NC(=S)Nc1ccc(S(=O)(=O)N2CCCC2)cc1	i	-6	2	-8	1	0	2	x
CCCC12CN3CCN(CC(C3)/C1=N\NC(=O)c1ccccc1N)C2	i	-2	7	5	-2	-6	0	10
C=CCSc1nnc(-c2cc(Br)ccc2N)c(=O)[nH]1	i	1	-11	35	-14	4	-1	-12
CCCn1c(=O)c2c(nc(Br)n2CCC)n(C)c1=O	i	-101	-14	4	5	7	6	-6
O=C(Nc1ccnn1C1CCN(CCCc2ccccc2)CC1)c1ccccc1	i	-5	2	-2	-5	1	5	-6
NC(=O)C1CCN(C(=O)c2ccc(Cl)c(S(=O)(=O)N3CCc4ccccc43)c2)CC1	x	1	x	x	x	4	1	-16
Cc1ccc(Cn2ncn3c(cc4ccccc43)c2=O)cc1	i	x	-5	1	10	-3	4	-20
Cc1nc2ccc(C(=O)N(C)Cc3ccccc3)cn2c1N(C)C(=O)CCc1ccccc1	x	-8	x	x	x	5	8	-9
O=C(N/N=C/c1ccccc1)c1cccc2ccccc12	i	-7	x	x	36	-2	-3	x
CC(C)(C)OC(=O)N1CCC(NC(=O)c2nc[nH]c2C(=O)N2CCc3ccccc3C2)CC1	x	-15	x	x	-20	3	-1	-2
COc1cc(CCCN2C(N)=NC[C@@H]2Cc2ccccc2)cc(OC)c1OC	i	14	5	3	-2	1	6	4
O=C(O)Cc1sc(N/N=C\c2ccccc2)nc1-c1ccccc1	i	-7	-6	10	1	-13	3	x
CC1CCCCC1NC(=O)C(C)N1C(=O)c2ccccc2C1=O (stereo not given)	x	x	x	x	-11	-2	-2	-15
O=C(NNc1nc(-c2ccccc2)cs1)c1cccs1	i	-2	3	-14	21	9	3	-15
CC1=CC(C)C2C(=O)N(O)C(=O)C2C1 (stereo not given)	i	-102	-4	-1	-4	3	0	-12
O=C(Nc1ccc2oc(-c3ccc4ccccc4c3)nc2c1)c1cccs1	i	x	-3	-18	26	4	6	-10
CCOC(=O)CSc1nc2c(cnn2-c2ccc(C)cc2)c(=O)[nH]1	i	2	6	-11	-5	2	-1	1
S=C(Nc1ccccc1Cl)N1CCCCC1	i	-15	0	-4	-17	-4	-1	-32
O=C(c1ccccc1)N1CN2CN(C(=O)c3ccccc3)CC([N+](=O)[O-])(C2)C1	i	8	0	-11	x	-3	2	x
CSc1cccc(NC(=S)N(Cc2ccccc2)Cc2cccnc2)c1	i	-2	5	2	-5	1	0	x
CCC(C)(O)c1[nH]c2ccc(C(F)(F)F)cc2c1C (stereo not given)	i	16	-2	5	7	0	2	-7
The results go on:
SMILES	Rce1 inhib	Env fusion inh	eIF4H FP inh	PABP polyA inh	CSC inhib	MT1-MMP act inh	MT1-MMP act inh RFP	UUG fidelity	others
O=C1CC2(CCCC2)C(=O)N1CN1CCN(S(=O)(=O)c2ccc(Cl)c(Cl)c2)CC1	x	-7	x	x	x	2	7	-7
N#Cc1ccc(Oc2cc(C(F)(F)F)nc(-c3ccccn3)n2)cc1	i	-91	-4	4	11	-12	-4	-25
CCOC(=O)C1(C)CCN1C(=O)c1ccc(OC)c(OC)c1 (stereo not given)	x	0	x	x	x	0	6	-1
Cc1cc(NC(=O)CSc2nccn2-c2cccc(C)c2C)no1	i	-8	-7	-8	14	-4	-7	x
Cc1ccc(CN(C)C(=O)CCc2nc3sc4c(c3c(=O)[nH]2)CCCC4)o1	i	x	8	2	0	-8	2	1
COc1ccc(CNC(=O)C2CCN(S(C)(=O)=O)CC2)c(OC)c1	i	29	-7	0	-8	-1	2	x
CCN(CC)S(=O)(=O)c1ccc(C)c(NC(=O)CN2C(=O)NC3(CCCC3)C2=O)c1	i	3	-3	1	-7	-2	-3	-7
NS(=O)(=O)c1ccc(CNC(=O)Cc2cccs2)cc1	i	-14	58*	16	x	-1	2	-12	eIF4H FP inh retest=68*;PABP polyA inh retest=42
COc1cccc(C(=O)N2CCN(Cc3cc(Br)ccc3OC)CC2)c1	x	x	-1	0	-2	-3	-7	-9
COc1ccc2nc(SC(C)C(=O)NC3CCCCC3)[nH]c2c1 (stereo not given)	x	-5	x	x	x	5	0	-18

By substructure: the compounds so far with a COOH group (two)
SMILES	Rce1 inhib	Env fusion inh	eIF4H FP inh	PABP polyA inh	CSC inhib	MT1-MMP act inh	MT1-MMP act inh RFP	UUG fidelity	others
O=C(O)[C@H](CSCc1ccccc1)NS(=O)(=O)c1ccc(F)cc1	i	-3	-2	19	7	1	7	x
O=C(O)Cc1sc(N/N=C\c2ccccc2)nc1-c1ccccc1	i	-7	-6	10	1	-13	3	x

Additional records follow.
SMILES	Rce1 inhib	Env fusion inh	eIF4H FP inh	PABP polyA inh	CSC inhib	MT1-MMP act inh	MT1-MMP act inh RFP	UUG fidelity	others
Cc1ccc(S(=O)(=O)N(CCC(=O)NCc2ccc(S(N)(=O)=O)cc2)c2ccccc2)cc1	x	-1	x	x	x	1	-5	-7
O=C(NCc1cn2ccsc2n1)Nc1ccc(Cl)cc1	i	1	-4	-8	4	24	3	-21
CCOC(=O)C1(CC2CC2)CCN(C(=O)c2ocnc2C)CC1	i	-10	-2	0	6	2	0	x
CC1(C)C(=O)Nc2ccccc2N1C(=O)COC(=O)c1cc(S(C)(=O)=O)ccc1Cl	x	10	x	x	x	0	0	-1
N/C(CS(=O)(=O)c1ccccc1)=N\OC(=O)c1ccc(F)cc1	i	-36	-4	6	-10	3	6	0
COc1cccc(/C=C2\SC(=S)N(CCC(=O)N3CCCCC3)C2=O)c1	i	11	-10	-8	57	0	-4	-11
CC1(C)Cc2c(sc3[nH]c(=S)[nH]c(=O)c23)CO1	i	14	-5	6	-21	5	5	-22
COc1ccc(C(=O)CC(=O)C(=O)Nc2cc(OC)c(OC)c(OC)c2)cc1	i	-32	1	-4	-5	-2	0	-1
O=C(OCc1nnc(-c2ccccc2)o1)c1ccc2c(c1)OCCO2	i	x	6	5	-14	1	1	-7
CC(C)NC(=O)CSCc1c(F)cccc1Cl	i	-101	-12	-14	-16	7	7	-14
CSCCC(NS(=O)(=O)c1ccccc1F)C(=O)NCC(c1ccc(F)cc1)N1CCOCC1 (stereo not given)	x	x	x	x	9	-2	4	-4
Cc1c(NS(=O)(=O)c2ccc(C(=O)N(C)Cc3cccc(Cl)c3Cl)cc2)c(=O)n(-c2ccccc2)n1C	x	15	x	x	x	0	-1	10
COc1nc(-c2ccccc2)nc(-c2ccccc2)c1C	i	5	x	x	17	3	-3	-17
O=S(=O)(c1cc(Cl)ccc1Cl)n1nnc2ccccc21	i	-5	-12	17	4	9	5	-3
CCN=C1SC(CC(=O)NCc2ccccc2)C(=O)N1CC (stereo not given)	i	-19	-4	-6	-15	-6	3	x
COC(=O)c1ccc(S(=O)(=O)N2CCCC2)o1	i	x	-13	2	x	-5	-5	-12
COc1ccc([C@H]2CC(=O)C=C(c3cc(C=O)ccc3OC)C2)cc1	x	-54	x	x	51	-5	-7	-25
CCOc1ccc(-c2[nH]ncc2Oc2cccc(OC)c2)c(O)c1	i	x	3	-5	30	-2	-10	-23

Bioassay records as filed in PubChem BioAssay.
